Screening data deposited in PubChem BioAssay by National Center for Advancing Translational Sciences (NCATS).
Vaccinia Venus = vaccinia inhibition (Venus reporter); Potency, µM (titrated, usually from 36.5 µM), inactives show at the top dose activity change, negative = inhibition, actives largely listed as inhibitors; Vaccinia virus Venus reporter expression, fluorescence; 330,000 compounds, 0.46% hits; AID 720580; active means well fitted inhibition curve with a large enough effect; inconclusive means small, poorly fitted or top-dose-only effect; inactive means no such curve, though single readings can be large or run the other way; tested in A549 cells; note: nearly all actives have a fitted effect of over 30% in size; inactives centre near -10
VACV mCherry inh = vaccinia inhibition (mCherry reporter); Vaccinia virus mCherry reporter infection, fluorescence; about a quarter of the inactives have no number; Potency, µM (series often up to 36.5 µM), for inactives: at the highest dose activity change, negative = inhibition, most hits filed as inhibitors; 310,000 compounds, 0.63% hits; AID 720579; active = well fitted inhibition curve with a large enough effect; inconclusive = small, poorly fitted or top-dose-only effect; inactive = no such curve, though single readings can be large or run the other way; tested in A549 cells; note: nearly all actives have a fitted effect of over 35% in size; inactives centre near -10
An asterisk follows results filed as active; i = inactive; ? = inconclusive; . = no result given; [ ] = remark or other dose. % is set by controls: 0 for no effect and ±100 for the full control effect; potency is the fitted concentration of half-maximal effect. Hits appear at their usual frequency; overall some 0.82% were active at least once.

nr	smiles	VACV mCherry inh	Vaccinia Venus
1	Cc1ccc(N2CC(C(=O)N3CCN(C(=O)c4ccco4)CC3)CC2=O)cc1 (stereo not drawn)	-16%	-13%
2	CC(=O)C[C@@H](O)CC(=O)[C@@H]1OC(=O)CCCCC/C=C/Cc2ccccc21	-15%	-28%
3	CC1(c2nnnn2Cc2ccccc2)CCC(=O)N1CC1CCCCC1 (stereo not drawn)	i	-18%
4	CCOc1ccccc1NC(=O)CN(c1ccc(C)cc1)S(=O)(=O)c1c(C)noc1C	-23%	?
5	N#C/C(=C\c1ccc(O)c(Br)c1)C(=O)NCc1ccccc1	i	-4%
6	CCC1(c2ccc(F)cc2)NC(=O)N(CC(=O)Nc2ccc(-c3nc4ccc(C)cc4s3)cc2)C1=O (stereo not drawn)	?	?
7	O=C(Nc1ccc(O)c(-c2nc3ccccc3s2)c1)C1=COCCO1	-18%	-14%
8	C=C1C(=O)C23C(O)C1CCC2C12CCCC(C)(COC(C)=O)C1C(O)C3(O)OC2 (stereo not drawn)	2.5µM*	4µM*
9	Cc1ccc(CN2CCC(CNC(=O)Nc3ccccc3F)CC2)cc1	-9%	-4%
10	CCN(CC)S(=O)(=O)c1ccc(N2CCc3ccccc3C2)nc1	?	-8%
11	CC(=O)N1CCCN(Cc2cn(-c3cc(C)ccc3C)nc2-c2ccccc2)CC1	-13%	-11%
12	O=C(CCS(=O)(=O)c1ccc(Br)cc1)Nc1ccccn1	-13%	-11%
13	COc1cccc(C(=O)NNC2OC(CO)C(O)C2O)c1 (stereo not drawn)	6%	0%
14	O=C(N/N=C/c1ccc(Br)s1)c1cccnc1	8%	0%
15	NC(c1csc(NC(=O)Nc2ccccc2)n1)C1CCCCC1 (stereo not drawn)	-17%	-24%
16	C#CC(C)(CC)NC(=O)Cn1nnc(-c2ccc(OCc3ccccc3C)cc2)n1 (stereo not drawn)	?	?
17	COc1cc(CN(C2CCCCC2)S(=O)(=O)c2ccc(S(=O)(=O)N(C)C3CCCCC3)cc2)cc(OC)c1OC	i	-16%
18	CC(=O)Nc1ccc(NC(=O)CSc2nnc(-c3cc(C)[nH]n3)n2N)cc1	-19%	-15%
19	Cc1ccc(C2(c3noc(CN(C)Cc4ccccn4)n3)CCCC2)cc1	-8%	-14%
20	Cc1ccc2cc(COC(=O)C3CCCO3)c(=O)[nH]c2c1 (stereo not drawn)	.	-24%

Reprinted from the part before: 4 compounds, then new ones.
nr	smiles	VACV mCherry inh	Vaccinia Venus
17	COc1cc(CN(C2CCCCC2)S(=O)(=O)c2ccc(S(=O)(=O)N(C)C3CCCCC3)cc2)cc(OC)c1OC	i	-16%
18	CC(=O)Nc1ccc(NC(=O)CSc2nnc(-c3cc(C)[nH]n3)n2N)cc1	-19%	-15%
19	Cc1ccc(C2(c3noc(CN(C)Cc4ccccn4)n3)CCCC2)cc1	-8%	-14%
20	Cc1ccc2cc(COC(=O)C3CCCO3)c(=O)[nH]c2c1 (stereo not drawn)	.	-24%
21	COc1ccc2[nH]c3c(c2c1)CCN1C(=O)C(CC(=O)NCc2ccco2)C[C@H](C(=O)N2CCCCC2)[C@@]31CCc1ccccc1 (stereo partly drawn)	?	?
22	CCOc1ccc(-c2c(C)nn3c(C)c(C(=O)NC(C)c4ccccc4)cnc23)cc1OCC (stereo not drawn)	-21%	-13%
23	O=C(N/N=C/c1cccnc1)c1cccc(NC(=O)c2ccccc2Cl)c1	-17%	5%
24	COc1ccc(S(=O)(=O)N2CCOC2CNC(=O)C(=O)NCCCN(C)C)cc1C (stereo not drawn)	-1%	-11%
25	Cc1ccc(NS(=O)(=O)c2cccc(C(=O)NCCc3c[nH]c4ccccc34)c2)c(C)c1	i	-23%
26	CN(CC(=O)Nc1cccc(F)c1)CC(=O)N(C)CC(=O)Nc1ccccc1Br	-18%	-4%
27	CC1CCCC(C)N1CCNC(=O)CCn1nc(-c2ccccc2)ccc1=O (stereo not drawn)	-9%	-4%
28	Cc1cc(-n2c(C)nc3ccccc3c2=O)ccc1NC(=O)c1ccccc1[N+](=O)[O-]	1%	-3%
29	O=C(Nc1ccc(N2CCCC(O)C2)cc1)c1snc2c(=O)[nH]cnc12 (stereo not drawn)	-1%	-13%
30	CS(=O)(=O)c1nc(-c2ccccc2)c(-c2ccccc2)[nH]1	-19%	-12%
31	COc1cc(NC(=O)COc2ccc(C)c(C)c2)ccc1NC(=O)c1ccco1	-29%	-5%
32	Cc1nn(-c2ccccc2)c(Cl)c1/C=C1\SC(=S)N(C)C1=O	i	-4%
33	Oc1cncc(Cc2ccccc2)c1	i	-3%
34	O=C(Nc1cccc(S(=O)(=O)NC2=NCCCCC2)c1)C1COc2ccccc2O1 (stereo not drawn)	-6%	-2%
35	O=C(/C=C/c1ccc(S(=O)(=O)N2CCOCC2)cc1)N1CCN(c2ccc(F)cc2)CC1	?	-26%
36	O=c1c2[nH]c3ccccc3c2nc2n1CCCS2	-13%	-27%
37	CSCCC(NC(=O)c1ccc(Cl)cc1Cl)C(=O)NNC(=O)c1csc(N2CCOCC2)n1 (stereo not drawn)	i	-6%
38	COC(OC)c1ccnc(SCc2ccccc2Cl)n1	i	-8%
39	O=C(O)CSc1nnc(NC(=O)c2ccc3c(c2)OCO3)s1	i	-4%
40	CCOC(=O)c1c(NC(NC(=O)CF)C(Cl)(Cl)Cl)sc2c1CCCC2 (stereo not drawn)	-19%	-2%
41	Cc1ccc(C(=O)NNC(=O)c2cc(C)nc3ccccc23)cc1	-7%	7%
42	CCc1nnc(NC(=O)C(C)C)s1	-2%	-5%
43	COc1ccc(C(O)(CCc2ccccc2)CCN2CCCCC2)cc1 (stereo not drawn)	-11%	-14%
44	COc1ccc(C2=Nc3ccccc3N(C(=O)c3ccc(C(F)(F)F)cc3)C2C(=O)Nc2ccc3c(c2)OCCO3)cc1 (stereo not drawn)	?	-14%
45	CNC(=S)Nc1cccc([N+](=O)[O-])c1	-12%	-12%
46	O=C(Nc1ccccc1)Nc1ccc(C(=O)N2CCCC2)cc1	-17%	-27%
47	CCN(CC)CCCNC(=O)Cn1nc([N+](=O)[O-])c(Cl)c1C	-27%	-7%
48	CN(CC(=O)Nc1ccccc1Cl)C(=O)CSc1nnc(-c2ccco2)o1	i	-11%
49	CCCCn1c(SCC(=O)NNC(=O)c2ccco2)nnc1-c1ccco1	0%	-5%
50	O=C(CSc1nccc(=O)[nH]1)Nc1cccc2ccccc12	?	-7%
51	CCCCN(C)C(=O)Cn1c(SCC(=O)Nc2ccc(C)c(C)c2)nc2ccccc21	-16%	-9%
52	COc1ccc(OC)c(NC(=O)Cn2cccc2)c1	-6%	-8%
53	Cc1ccc(C(C)NC(=O)c2cccs2)cc1 (stereo not drawn)	i	-29%
54	CC(=O)NC1=NC(=O)/C(=C/c2cc(C)n(-c3ccc(NC(C)=O)cc3)c2C)S1	-22%	-17%
55	CCOC(=O)CN=C(NS(=O)(=O)c1ccc(Cl)cc1)c1ccccc1	-8%	5%
56	COc1cc(C(=S)N2CCCCC2)ccc1OCC(=O)N1CCCC1	-13%	2%
57	O=C(CSc1nnc2[nH]c(=O)cc(-c3ccccc3)n12)Nc1ccccc1C(F)(F)F	-22%	-9%
58	COc1ccc2c(CNCCc3ccccc3C)c(C(=O)O)n(Cc3ccccc3C)c2c1	-10%	-14%
59	Cc1ccc(C(=O)N2CCOc3ccc(CN4CCN(Cc5ccccn5)CC4)cc3C2)cc1	-6%	-3%
60	Cc1cc(F)ccc1NC(=O)c1ccc(NS(=O)(=O)c2cc(C(C)(C)C)ccc2C)cc1	-1%	-17%
61	COc1ccc(NC(=O)c2cc(-c3ccccc3)nc3c2c(C)nn3-c2ccccc2)c(OC)c1	i	-13%
62	Cc1ccc(OCCCC(=O)Nc2cc(Cl)ccc2-n2cncn2)cc1	i	-9%
63	O=C(Oc1ccccc1N1C(=O)C2CCCCC2C1=O)c1ccccc1F (stereo not drawn)	-12%	-9%
64	O=C(CSCc1nc2scc(-c3cccs3)c2c(=O)[nH]1)Nc1ccccn1	34%[activator]	21%
65	Fc1ccc(Nc2nc(-c3cccc(Cl)c3)c3c(n2)-c2ccccc2OC3)c(F)c1	-12%	-3%
66	CN(Cc1ccc(F)cc1)C(=O)COc1ccc2ccccc2c1	-6%	-2%
67	COc1ccc(CC(N)c2csc(Nc3cc(Oc4ccccc4)ncn3)n2)cc1 (stereo not drawn)	-17%	-11%
68	Cn1c(SCc2cccc([N+](=O)[O-])c2)nc2c(c1=O)SCC2	?	-8%
69	O=S(=O)(NNC(=S)NCC1CCCO1)c1cc(Cl)ccc1Cl (stereo not drawn)	-7%	-2%
70	CC(=O)N/C(=C/c1ccc2c(c1)OCO2)C(=O)N1CCOCC1	-1%	-18%
71	COc1ccc2oc(=O)c(/C(N)=N/NC(=O)c3ccncc3)cc2c1	i	-9%
72	CCCCn1c(SCC(=O)NCc2cccs2)nc2c1c(=O)n(C)c(=O)n2C	-11%	0%
73	C/C(=N\NC(=O)c1csc2ccccc12)c1ccc(O)cc1	.	-20%
74	CCOC(=O)C1=C(N)N(c2ccc(C)cc2)C2=C(C(=O)CCC2)C1c1cccs1 (stereo not drawn)	-5%	-20%
75	Cc1ccc(C2=CC(c3cccs3)n3nnnc3N2)cc1 (stereo not drawn)	-10%	-2%
76	CC(=O)Nc1ccc(S(=O)(=O)N2c3ccccc3C(C)=CC2(C)C)cc1	-24%	-20%
77	CCN(CC(=O)Nc1c(F)cccc1F)C(=O)CSCC(=O)Nc1cccc(C)c1	-3%	-17%
78	Cc1ccc(C)c(NC(=O)CN(C)C(=O)COc2cccc3c2OC(C)(C)C3)c1	-16%	-9%
79	Cc1ccc(-c2csc(C(O)c3ccc(F)cc3)n2)cc1C (stereo not drawn)	i	-14%
80	CCO[C@H]1OC(C(N)=O)=C[C@@H](C2CCCCC2)[C@@H]1CCCO	-7%	-8%

In a second layout: 6 of the compounds above.
11. CC(=O)N1CCCN(Cc2cn(-c3cc(C)ccc3C)nc2-c2ccccc2)CC1
12. O=C(CCS(=O)(=O)c1ccc(Br)cc1)Nc1ccccn1
13. COc1cccc(C(=O)NNC2OC(CO)C(O)C2O)c1 (stereo not drawn)
14. O=C(N/N=C/c1ccc(Br)s1)c1cccnc1
15. NC(c1csc(NC(=O)Nc2ccccc2)n1)C1CCCCC1 (stereo not drawn)
16. C#CC(C)(CC)NC(=O)Cn1nnc(-c2ccc(OCc3ccccc3C)cc2)n1 (stereo not drawn)
Compound | 11 | 12 | 13 | 14 | 15 | 16
VACV mCherry inh | -13% | -13% | 6% | 8% | -17% | ?
Vaccinia Venus | -11% | -11% | 0% | 0% | -24% | ?

Continuation:
nr	smiles	VACV mCherry inh	Vaccinia Venus
81	COc1cc(C2Nc3c(C)cc(C)cc3-c3cc(C)nn32)cc(OC)c1O (stereo not drawn)	-2%	?
82	CCOC(=O)c1ccc(Oc2nc(SC)nc(N(C)C)n2)cc1	.	-6%
83	COc1ccccc1C(=O)N1c2ccccc2Sc2ccccc21	?	-29%
84	O=S(=O)(c1ccccc1)N(c1ccccc1)S(=O)(=O)c1ccccc1	i	-12%
85	CCOC(=O)N1CCC2(CC1)C(C#N)=C(N)OC1=C2C(=O)CCC1	?	-13%
86	CN(C)CC/C=C1\c2ccccc2Sc2ccc(Cl)cc21	?	?
87	CCCNC(=O)c1cc2n(n1)CCCN(Cc1ccc(C)cc1)C2=O	-2%	-11%
88	O=c1c2ccccc2sc2ccccc12	i	-3%
89	Cc1ccc(N2C(=O)CC(Sc3nc(-c4ccccc4)c4cc(Cl)ccc4n3)C2=O)c(C)c1 (stereo not drawn)	i	-12%
90	CCCc1cc(=O)oc2c(C)c(OCC(=O)NC3CC(C)(C)NC(C)(C)C3)ccc12	i	?
91	Cc1ccc(NC2CCCN(C(=O)c3c(C)noc3C)C2)cc1C (stereo not drawn)	-8%	-11%
92	Cc1ccc(CNC(=O)C(Cc2ccccc2)NS(=O)(=O)c2ccc3c(c2)CCC(=O)N3)cc1 (stereo not drawn)	24%	-15%
93	COc1cccc(-c2nc(CS(=O)(=O)CC(=O)N3CCc4ccccc4C3)c(C)o2)c1	-11%	-9%
94	Oc1cc2c(cc1O)CN(C(=S)NCCc1ccc(Cl)cc1)CCC2	?	?
95	CC[C@@H]1CN(C)[C@H]2Cc3c([nH]c4ccccc34)C(=O)C[C@@H]1[C@@H]2C(=O)OC	-4%	-4%
96	O=C(NNc1ccc([N+](=O)[O-])cc1)c1ccccc1F	-8%	-7%
97	Cc1ccc(OCCC(=O)OCC(=O)Nc2cc(S(=O)(=O)N(C)C)ccc2C)cc1	-5%	-15%
98	CN(C)C(=O)c1ccc(NC(=O)c2cc(-n3cnnc3)ccc2Cl)cc1	-8%	2%
99	COc1ccccc1N=c1oc2cc(O)ccc2cc1C(N)=O	-25%	?
100	COc1ccc2ncc3c(-c4ccc(C)c(C)c4)nn(CC(=O)Nc4ccccc4)c3c2c1	?	-29%
101	O=C(NCc1cccnc1)c1ccc(NC(=O)c2ccc(Br)cc2)cc1	-17%	-8%
102	Cc1ccc(NC2=C(NC(=O)c3ccccc3)C(=O)c3ccccc3C2=O)cc1Cl	?	?
103	O=C(O)C1=C(C(=O)Nc2cccc(C(F)(F)F)c2)CCCC1	i	-11%
104	Cc1ccc(C(=O)N2CCCCC2C(=O)O)o1 (stereo not drawn)	-8%	3%
